Bioassay records from PubChem BioAssay.
Rango complex inh = Rango-importin beta binding inhibition | Q14974 | Rango CFP/YFP FRET sensor + importin beta, 45 min | Potency, µM (top dose mostly 92.2 µM), without a hit: at the top dose inhibition of complex formation | actives 0.031% (n = 340,000) | AID 540263; active = rising FRET ratio curve, often small or poorly fitted; inconclusive = mostly compound fluorescence or quenching in the first reads; inactive = flat curves in all reads;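 further: potency means the concentration at half of the fitted maximal effect; 0% = DMSO wells and 100% = buffer wells lacking importin beta; nearly all actives have a fitted effect of over 15% in size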
Target sequence (Q14974 whole entry, looked up): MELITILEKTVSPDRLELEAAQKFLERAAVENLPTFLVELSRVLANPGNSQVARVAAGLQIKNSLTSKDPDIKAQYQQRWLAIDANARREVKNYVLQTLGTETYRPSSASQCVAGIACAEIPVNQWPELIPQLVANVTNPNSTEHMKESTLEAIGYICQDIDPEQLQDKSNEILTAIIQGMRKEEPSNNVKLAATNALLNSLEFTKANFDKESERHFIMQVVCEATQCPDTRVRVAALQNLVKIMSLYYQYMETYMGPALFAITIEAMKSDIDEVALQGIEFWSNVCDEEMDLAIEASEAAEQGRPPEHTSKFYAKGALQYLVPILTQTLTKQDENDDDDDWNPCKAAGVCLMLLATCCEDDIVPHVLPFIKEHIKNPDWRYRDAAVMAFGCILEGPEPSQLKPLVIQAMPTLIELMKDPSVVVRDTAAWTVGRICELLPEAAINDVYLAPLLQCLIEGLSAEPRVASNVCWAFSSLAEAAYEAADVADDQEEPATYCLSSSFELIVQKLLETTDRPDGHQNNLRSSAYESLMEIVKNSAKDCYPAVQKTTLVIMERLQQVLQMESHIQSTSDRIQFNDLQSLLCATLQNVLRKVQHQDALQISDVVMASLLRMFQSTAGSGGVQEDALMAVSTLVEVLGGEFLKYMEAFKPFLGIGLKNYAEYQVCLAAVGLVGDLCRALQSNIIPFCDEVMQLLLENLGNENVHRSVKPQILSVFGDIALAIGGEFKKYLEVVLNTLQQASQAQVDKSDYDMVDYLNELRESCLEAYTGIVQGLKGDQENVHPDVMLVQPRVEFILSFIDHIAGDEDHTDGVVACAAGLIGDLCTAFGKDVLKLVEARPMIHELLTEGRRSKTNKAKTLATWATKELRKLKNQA
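FRET biosensor (snurportin 1 IBB flanked by EYFP and cerulean), 50 nM, with compound 5 min, then 0.125 microM importin beta in PBS, 1 mM DTT, 0.02% Tween-20, 0.1% BSA. CFP/YFP ratio read after 45 min at room temperature; pre-read flags interference.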
Rango release inh = prevents RanGTP from dissociating the Rango-importin beta complex | O95149+P62826 | Biochemical FRET Rango-importin beta, RanGTP-induced dissociation | Potency, µM (doses to about 46.1 µM), without a hit: at the highest dose activity change, negative = inhibition | actives 0.071% (n = 340,000); active means falling FRET ratio curve, often poorly fitted, with flat reads before Ran was added; inconclusive means other falling curves, or compound fluorescence or quenching; inactive means flat or rising ratio curve;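 further: potency means the concentration at half of the fitted maximal effect; % of control where 0% means no effect; nearly all actives have a fitted effect of over 45% in size; -100% = wells without RanGTP and RCC1; the record marks most hits as doubtful in a second field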
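Rango/importin beta premix (0.1/0.25 uM final), PBS + 1 mM DTT + 0.02% Tween-20 + 0.1% BSA; cpd 5 min RT; FRET pre-read; + RanGTP-RCC1 (0.6 uM Ran, 2 mM GTP, 0.2 uM RCC1); 45 min RT; FRET post-read, ex 430, em 486/530 nm.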
GLA inh pH 4.5 = inhibitors of human alpha-galactosidase A at pH 4.5 | P06280 | purified enzyme, 4-MU-alpha-Gal fluorescence, pH 4.5 | activity change, negative = inhibition, % at 105 µM | 230,000 tested, under 10 active; inconclusive = small, poorly fitted or top-dose-only inhibition, or a rising curve; inactive = flat fitted curve, though single readings scatter; no compound was filed as active;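 further: 0% = full activity with enzyme and -100% = basal without enzyme; dose as in the result columns while the protocol names 77 µM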
miR-21 reporter = miR-21 reporter, rising signal; Potency, µM (doses to about 38.3 µM), for inactives: at the highest dose reporter change, positive = more light; 340,000 tested, under 10 active; HeLa miR-21 FLuc reporter, luciferase, 48 h; AID 2288; active = well fitted rising curve with a large enough effect; inconclusive = small, poorly fitted or top-dose-only effect; inactive = no such curve, though single readings can be large or run the other way;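 further: % of control where 0% means no effect; miR-21 action dims this reporter so a rising signal means less miR-21 action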
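Compounds were titrated across several concentrations (up to approximately 40 uM) and incubated 48 hours with HeLa miR-21-FLuc reporter cells (miR-21 target sequence downstream of FLuc, endogenous miR-21). Readout was firefly luciferase luminescence after lytic detection reagent.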
An asterisk follows results filed as active; ? = inconclusive; nt = no result given.

Rango complex inh	Rango release inh	GLA inh pH 4.5	miR-21 reporter	mol
-4.5%	-1%	-9	1%	Cc1cc([N+](=O)[O-])cnc1Sc1nccn1C
?	?	-3	0%	O=C(N/N=C/c1ccccc1F)c1ccc(COc2ccccc2Cl)o1
2.2%	0%	-8	2%	CCn1nc(C)c(CN2CCc3c([nH]c4ccccc34)C2C(C)(C)C)c1C (centres undefined)
-2.2%	-2%	nt	-54%	O=C(Nc1ccc(Cl)cc1Cl)c1ccc(Br)o1
0.6%	26%	nt	0%	CCN1C(=O)[C@H]2[C@@H](c3ccc(C)cc3)N3C(=O)N(c4cccc(C)c4)C(=O)[C@@]3(Cc3ccccc3)[C@H]2C1=O
-3.6%	4%	4	4%	COCCNC(=O)CSc1nc2cc3c(cc2c(=O)n1Cc1ccco1)OCO3
?	-20%	22	3%	CC1=C(C(=O)OCCOC(C)C)C(c2cccnc2)C2=C(CCCC2=O)N1 (centres undefined)
?	-15%	3	-21%	O=C(Nc1ccc(Cl)cc1)Nc1nc(-c2sccc2Br)cs1
?	-29%	7	0%	O=C(COc1ccc(F)cc1)NN1C(=O)CSC1=S
0.6%	6%	2	-1%	CCC1(CC)NC(=O)N(CC(=O)OCC(=O)Nc2ccccc2[N+](=O)[O-])C1=O
0.6%	-8%	-14	21%	COc1ccc(CN2C(=O)CCCc3ccccc32)cc1
?	-6%	nt	4%	CC(NC(=O)Cc1ccc(NS(=O)(=O)c2cccc(C(F)(F)F)c2)cc1)c1ccccn1 (centres undefined)
-1.4%	16%	nt	-2%	COc1ccc(C(=O)NCc2ncccc2C)cc1OC1CCN(C(C)=O)CC1
-0.3%	-5%	-5	-3%	Cc1ccc(C(=O)n2cnnc2N)cc1C
4.8%	-7%	-14	-2%	Cc1cc(=O)oc(C)c1C(=O)NCC1COc2ccccc2O1 (centres undefined)
-1.0%	?	-4	-17%	O=C(CNC(=O)c1ccccc1)OCC(=O)N1N=C(c2ccc(Cl)cc2)CC1c1ccco1 (centres undefined)
-4.0%	-18%	-4	-1%	Nc1nc(-c2ccco2)nn1S(=O)(=O)c1ccc(Cl)cc1
-0.7%	-8%	0	0%	Cc1cccc(C)c1NC(=O)CNC(=O)Cc1ccc(Br)cc1
nt	nt	-5	-2%	CCOC(=O)c1cnc(SCC(=O)Nc2ccc(N3CCOCC3)cc2)nc1N
7.7%	-22%	-6	4%	COc1cccc(Cn2nnc(C(=O)Nc3cc(Cl)ccc3OC)c2N)c1
2.1%	10%	-2	-1%	CC(OC(=O)c1cc(-c2cccnc2)nc2ccccc12)C(=O)Nc1ccc2ccccc2c1 (centres undefined)
1.8%	31%	1	4%	CCOC(=O)c1[nH]c(C)c(C(=O)NCCN2CCOCC2)c1C
-1.7%	0%	nt	nt	CC(=O)c1cccc(NC(=O)C(C)OC(=O)CCC2CCCCC2)c1 (centres undefined)
0.4%	-1%	-5	-9%	Cc1sc2nc(C)n(/N=C/c3ccccc3)c(=O)c2c1C
-3.5%	6%	11	2%	CC(C)(C)SCCNC(=O)CN(c1ccc(F)cc1)S(C)(=O)=O
nt	nt	5	0%	CC1CCN(C(=O)C2CCN(CCCc3ccccc3)CC2)CC1
1.1%	12%	nt	0%	COc1ccc(-n2nc(C(=O)NCC(=O)NCCC3=CCCCC3)c3ccccc3c2=O)c(OC)c1
16µM*	1%	nt	-42%	N#C/C(=C\c1ccc[nH]1)C(=O)Nc1ccccc1Cl
2.4%	0%	-22	-12%	CC1CCN(c2ccc(/C=C(\C#N)c3nn(-c4ccccc4)c(N)c3C#N)cc2[N+](=O)[O-])CC1
-3.1%	-12%	-8	-1%	Cc1ccc(CNC(=O)CCc2nc3ccccc3c(=O)[nH]2)cc1
-0.6%	-18%	-4	-5%	O=S(=O)(c1ccccc1F)N1CCN(C(=S)NCc2ccccc2)CC1
-1.4%	0%	-2	-1%	O=C(O)CCSc1nnc(-c2cccnc2)n1-c1ccccc1
-0.8%	7%	nt	17%	COc1ccc(NC(=S)NCc2ccccc2Cl)c(OC)c1
0.3%	-8%	nt	5%	CCN(CC)c1ccc(NC(=O)CCNS(=O)(=O)c2ccc3c(c2)CCC(=O)N3)c(C)c1
-6.5%	1%	-14	1%	COc1cc(S(=O)(=O)NCC2COCCO2)ccc1-n1cnnn1 (centres undefined)
3.9%	-1%	7	-11%	Cc1ccc(S(=O)(=O)N2CCOCC2)cc1NC(=O)COC(=O)c1ccc(OCc2c(C)noc2C)cc1
-0.7%	9%	2	-17%	COc1ccc(N2CC(O)=C(c3nc(C)cs3)C2=N)cc1
-1.3%	20%	1	-8%	CCn1nc(CC(=O)Nc2nnc(CC(=O)N3CCCCC3)s2)c2ccccc2c1=O
-1.3%	-1%	nt	nt	CCCCn1c(N)c(N(CCOC)C(=O)COC(=O)CCOc2ccccc2C)c(=O)[nH]c1=O
2.4%	7%	nt	-5%	CCCCN(CCCC)CCNC(=O)CN1C(=O)COc2ccc(S(=O)(=O)N3CCOCC3)cc21

A different layout for 24 compounds above:
SMILES | Rango complex inh | Rango release inh | GLA inh pH 4.5 | miR-21 reporter
O=C(CNC(=O)c1ccccc1)OCC(=O)N1N=C(c2ccc(Cl)cc2)CC1c1ccco1 (centres undefined) | -1.0% | ? | -4 | -17%
Nc1nc(-c2ccco2)nn1S(=O)(=O)c1ccc(Cl)cc1 | -4.0% | -18% | -4 | -1%
Cc1cccc(C)c1NC(=O)CNC(=O)Cc1ccc(Br)cc1 | -0.7% | -8% | 0 | 0%
CCOC(=O)c1cnc(SCC(=O)Nc2ccc(N3CCOCC3)cc2)nc1N | nt | nt | -5 | -2%
COc1cccc(Cn2nnc(C(=O)Nc3cc(Cl)ccc3OC)c2N)c1 | 7.7% | -22% | -6 | 4%
CC(OC(=O)c1cc(-c2cccnc2)nc2ccccc12)C(=O)Nc1ccc2ccccc2c1 (centres undefined) | 2.1% | 10% | -2 | -1%
CCOC(=O)c1[nH]c(C)c(C(=O)NCCN2CCOCC2)c1C | 1.8% | 31% | 1 | 4%
CC(=O)c1cccc(NC(=O)C(C)OC(=O)CCC2CCCCC2)c1 (centres undefined) | -1.7% | 0% | nt | nt
Cc1sc2nc(C)n(/N=C/c3ccccc3)c(=O)c2c1C | 0.4% | -1% | -5 | -9%
CC(C)(C)SCCNC(=O)CN(c1ccc(F)cc1)S(C)(=O)=O | -3.5% | 6% | 11 | 2%
CC1CCN(C(=O)C2CCN(CCCc3ccccc3)CC2)CC1 | nt | nt | 5 | 0%
COc1ccc(-n2nc(C(=O)NCC(=O)NCCC3=CCCCC3)c3ccccc3c2=O)c(OC)c1 | 1.1% | 12% | nt | 0%
N#C/C(=C\c1ccc[nH]1)C(=O)Nc1ccccc1Cl | 16µM* | 1% | nt | -42%
CC1CCN(c2ccc(/C=C(\C#N)c3nn(-c4ccccc4)c(N)c3C#N)cc2[N+](=O)[O-])CC1 | 2.4% | 0% | -22 | -12%
Cc1ccc(CNC(=O)CCc2nc3ccccc3c(=O)[nH]2)cc1 | -3.1% | -12% | -8 | -1%
O=S(=O)(c1ccccc1F)N1CCN(C(=S)NCc2ccccc2)CC1 | -0.6% | -18% | -4 | -5%
O=C(O)CCSc1nnc(-c2cccnc2)n1-c1ccccc1 | -1.4% | 0% | -2 | -1%
COc1ccc(NC(=S)NCc2ccccc2Cl)c(OC)c1 | -0.8% | 7% | nt | 17%
CCN(CC)c1ccc(NC(=O)CCNS(=O)(=O)c2ccc3c(c2)CCC(=O)N3)c(C)c1 | 0.3% | -8% | nt | 5%
COc1cc(S(=O)(=O)NCC2COCCO2)ccc1-n1cnnn1 (centres undefined) | -6.5% | 1% | -14 | 1%
Cc1ccc(S(=O)(=O)N2CCOCC2)cc1NC(=O)COC(=O)c1ccc(OCc2c(C)noc2C)cc1 | 3.9% | -1% | 7 | -11%
COc1ccc(N2CC(O)=C(c3nc(C)cs3)C2=N)cc1 | -0.7% | 9% | 2 | -17%
CCn1nc(CC(=O)Nc2nnc(CC(=O)N3CCCCC3)s2)c2ccccc2c1=O | -1.3% | 20% | 1 | -8%
CCCCn1c(N)c(N(CCOC)C(=O)COC(=O)CCOc2ccccc2C)c(=O)[nH]c1=O | -1.3% | -1% | nt | nt

(continued)
Rango complex inh	Rango release inh	GLA inh pH 4.5	miR-21 reporter	mol
-0.6%	-17%	4	-1%	CC1CCC(C(C)C)C(OCC(O)CNC(C)(C)C)C1 (centres undefined)
0.8%	6%	nt	nt	Cc1onc(-c2c(F)cccc2Cl)c1C(=O)Nc1cccc(S(=O)(=O)N2CCOCC2)c1
-1.4%	-7%	6	2%	O=C(Nc1cccc2ccccc12)N1CCN(Cc2ccccc2)CC1
-6.4%	-8%	nt	6%	O=C(c1cc2cc(F)ccc2[nH]1)N1CCN(Cc2ccc3c(c2)OCO3)CC1
-2.4%	-2%	5	-20%	COc1cc(OC)cc(-c2nc(-c3cccs3)no2)c1
-1.4%	1%	-9	5%	CC(C)NS(=O)(=O)c1ccc(CCC(=O)N2CCc3ccccc3C2)cc1
4.9%	-11%	3	0%	N/C(=N\OC(=O)c1cnn(-c2ccccc2)c1C(F)(F)F)c1cc(C(F)(F)F)cc(C(F)(F)F)c1
1.2%	-14%	nt	-8%	COCC1CCN(C(=O)c2ccc(OC)c(OC3CCN(C(C)C)CC3)c2)CC1
0.2%	18%	-9	-5%	Cc1nc(C)c(C(=O)NNS(=O)(=O)c2ccccc2)s1
-0.1%	0%	5	-11%	C=CCSc1ncccc1C(=O)NCc1ccccc1
1.8%	-4%	nt	-10%	C=CCc1ccccc1OCCn1nnc2ccccc21
-2.9%	-7%	nt	nt	O=c1cc(N/N=C/c2ccccc2)[nH]c(=O)[nH]1
0.5%	13%	nt	nt	COc1ccc(C(=O)NC(=S)NNC(=O)c2ccncc2)cc1Br
3.5%	2%	-1	-54%	CC(C)(O)c1cc(=O)sc2nc3ccccc3n12
-2.2%	-10%	1	-20%	OCC1CCN(Cc2nc(Cc3ccccc3Cl)no2)CC1
-2.2%	-14%	nt	nt	CN(C)S(=O)(=O)c1ccc(NC(=O)C2CC(=O)N(Cc3ccccc3Cl)C2)cc1 (centres undefined)
-3.8%	-13%	-15	-13%	C(=Nc1cccc2c(N=Cc3ccco3)cccc12)c1ccco1
0.0%	0%	nt	-7%	O=c1ccc(-c2ccccc2)nn1Cc1ccccc1F
7.2%	0%	nt	1%	CC(=O)N1CCN(C(=O)CSc2nnc(C)n2-c2ccccc2)CC1
-0.6%	-6%	7	-6%	Cc1cc2cc3c(cc2nc1SCC(=O)Nc1nc(C)c(C)s1)OCO3
5.7%	-5%	4	-53%	Cc1ccc(NC(=O)Cn2nnc3ccccc32)cc1
1.9%	-8%	nt	0%	CCCc1cc(=O)oc2c(C)c(OCC(=O)Nc3ccc(CN4CCOCC4)cc3)ccc12
0.5%	-11%	nt	nt	CN(C)CCCN1C(=O)C(O)=C(C(=O)c2cc3ccccc3o2)C1c1ccccn1 (centres undefined)
-0.9%	6%	-2	8%	CCC1/C(=N\O)CC(c2ccco2)NC1c1ccco1 (centres undefined)
-0.1%	1%	-5	-5%	COc1ccc2c(CC(=O)OCC(=O)Nc3ccc4c(c3)OCO4)coc2c1
0.9%	-18%	-1	10%	Cc1ccc(-n2c(SCC(=O)NCC3CCCO3)nc3n[nH]c(C)c3c2=N)cc1Cl (centres undefined)
4.1%	-17%	-9	?	Cn1c(Cn2c3ccccc3c3ccccc32)n[nH]c1=S
-1.8%	-5%	nt	nt	O=C(COC(=O)c1cc([N+](=O)[O-])ccc1N1CCOCC1)c1ccc(Br)cc1
2.1%	-11%	4	-1%	O=C(CSc1nccc(=O)[nH]1)c1ccco1
0.6%	8%	-8	-1%	O=[N+]([O-])c1cccc(C(=S)N2CCN(c3ccccc3)CC2)c1
-5.2%	30%	2	-5%	O=C(Nc1ccc(F)cc1)N1CCCC(c2nc3c(nnn3Cc3ccccc3Cl)c(=O)[nH]2)C1 (centres undefined)
?	?	7	13%	Brc1ccc(-c2nc3ncccn3c2NC2CCCCC2)o1
0.8%	-9%	0	0%	CSCC(NS(=O)(=O)c1ccc(C)cc1)C(=O)O (centres undefined)

These rows are one share of the data; rates above refer to the full screens.
